CDC25B-CDK2 inh – human CDC25B-CDK2/CyclinA binding inhibition; HTRF CDC25B-CDK2/CyclinA binding, anti-His/anti-Flag; stronger effect = higher value; z-score (test concentration not listed); actives 0.72% (n = 94,000);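 also: score is relative to mean and SD of negative controls; strong numbers were not always called active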
HIV TAR-Tat – HIV-1 TAR-Tat binding disruption. HIV-1 TAR RNA, Tat peptide displacement FRET; stronger effect = higher value. z-score (concentration not given with the values). actives 0.6% (n = 100,000). AID 1259389;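 also: score is relative to mean and SD of negative controls; some compounds called inactive have numbers as strong as hits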
Active calls of the source: *; . = not tested or not shown.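 The calls were made as follows: active = z-score from 3 up in half or more of its runs; inactive = the rest.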

SMILES	CDC25B-CDK2 inh	HIV TAR-Tat
CCn1cc(CNC(=O)c2cc3n(n2)C(C(F)(F)F)CC(c2ccco2)N3)c(C)n1 (stereo not drawn)	0.58	0.11
O=C(OCc1cc(=O)n2nc(-c3cccs3)sc2n1)c1ccccc1F	.	0.46
Fc1ccc2nc(COc3ccccc3)[nH]c2c1	1.1	0.83
O=c1cc(O)c2c(n1-c1ccccc1)CCCCC2	-0.89	.
CN1C(=O)c2ccccc2C(C(=O)Nc2ccc(F)c(Cl)c2)C1c1cn(C)c2ccccc12 (stereo not drawn)	-3.7	.
Cc1oc(S(=O)(=O)N2CCCCC2)cc1NC(=O)Nc1ccc(F)cc1	-1.6	.
Cc1cc(CN2CC(C)OC(C)C2)cc(C)c1O (stereo not drawn)	-3.5	.
Cc1cc2oc(C(=O)Nc3sc4c(c3C(=O)NCC3CCCO3)CCC4)cc(=O)c2cc1C (stereo not drawn)	-2.1	-8.5
CCCn1c(C)ccc(-c2noc(CCCC(=O)Nc3nccs3)n2)c1=O	-0.4	0.81
Cc1cc(C)n(-c2nc3ccccc3n3c(CCC(=O)O)nnc23)n1	-0.52	0.65

Entries shown so far that have a furan ring, fused or not:
SMILES	CDC25B-CDK2 inh	HIV TAR-Tat
CCn1cc(CNC(=O)c2cc3n(n2)C(C(F)(F)F)CC(c2ccco2)N3)c(C)n1 (stereo not drawn)	0.58	0.11
Cc1oc(S(=O)(=O)N2CCCCC2)cc1NC(=O)Nc1ccc(F)cc1	-1.6	.

Following part:
SMILES	CDC25B-CDK2 inh	HIV TAR-Tat
CC(C)CCNCC(O)Cn1c2ccccc2c2ccccc21 (stereo not drawn)	-1.9	.
CC(=O)N1c2ccc(S(=O)(=O)N3CCOCC3)cc2CC1C(=O)NC(C)C (stereo not drawn)	.	2.4
O=C(Nc1cccnc1)c1cc2c(s1)-c1ccc(Cl)cc1S(=O)(=O)C2	-0.59	1.3
CCOC(=O)c1sc(-c2ncc(C(F)(F)F)cc2OCC)nc1C	-0.28	.
O=C(Nc1ccc(Cl)cc1)N1CCC(n2c(CC3CCCC3)nc3cccnc32)CC1	.	0.16
NC(=O)c1c(NC(=O)CCCS(=O)(=O)c2ccc(Cl)cc2)sc2c1CCC2	.	1
COc1ccc(CCNc2nc(SCc3cc(=O)n4ccccc4n3)nc3ccccc23)cc1OC	.	2.3
CC1=C(C(=O)OCC(C)C)C(c2ccc(F)cc2)C2=C(CC(c3cccs3)CC2=O)N1 (stereo not drawn)	0.2	0.35
Nc1c(-c2nc(-c3cccs3)no2)nnn1-c1ccc(F)cc1	.	6.6
Cc1c(C(=O)O)cc(C(C)(C)C)n1-c1ccc2c(c1)OCCO2	-0.99	.
CCC(C)NC(=O)CCC(=O)N1Cc2cccn2-c2ccccc21 (stereo not drawn)	.	1.5
Cc1ccc2c(c1)c(=O)c(S(=O)(=O)c1ccc(Cl)cc1)cn2C	-1.6	-0.04
Cn1nccc1C(=O)Nc1cccc2nsnc12	.	-0.25
Cc1cc(N2C(=O)C3C4C=CC(C4)C3C2=O)no1 (stereo not drawn)	-1.1	.
N#CC1=C(N)Oc2n[nH]c(-c3ccccc3)c2C1c1ccc([N+](=O)[O-])s1 (stereo not drawn)	2.2	1.4
COc1ccc(N2CCN(C(=O)N3c4ccccc4Sc4ccccc43)CC2)cc1	0.03	-0.35
O=C1C(=O)N(CCCn2ccnc2)C(c2cccc(Br)c2)/C1=C(\O)c1ccc(F)cc1 (stereo not drawn)	-2	0.47
Cc1cc(NC(=O)NCC(O)c2ccccc2)c(C(F)(F)F)o1 (stereo not drawn)	0.52	.
Fc1ccccc1-c1noc(Nc2ccc3c(c2)OCCO3)n1	.	0.91
O=C1CCCc2cc(S(=O)(=O)N3CCCC(C(=O)N4CCOCC4)C3)ccc2N1 (stereo not drawn)	.	1.7
Cn1c(SCCOc2ccccc2Cl)nnc1-c1ccc2c(c1)OCCCO2	.	2.2
CCOC(=O)C(CC)Sc1ccc2nnc(-c3ccc(Cl)cc3)n2n1 (stereo not drawn)	-0.48	.
CC(C)(C)c1ccc(NC(=O)c2ccc(Cl)cc2)c([N+](=O)[O-])c1	-0.93	.
CC(C)(C)CC(=O)Nc1nnc2n1CCCS2	.	1.1
CC1=C(c2ccccc2)S(=O)(=O)NC1=NCc1ccc(F)cc1	-6.5	-1.9
Cc1cccc(Nc2c3c(nc4nncn24)CCC3)c1C	-1.2	0.82
Cc1ccc2nc(NC(=O)C(C)(C)C)[nH]c(=O)c2c1	-0.18	.
COc1ccc(OC)c(Nc2c(-c3cc(C)c(C)cc3C)c(=O)c2=O)c1	.	-0.33
O=C(O)C1CC(=O)N(C2CCCCC2)C1 (stereo not drawn)	.	1.6
Cc1nn(S(=O)(=O)c2ccc3ccccc3c2)c(C)c1S(=O)(=O)N(C)c1ccccc1	.	0.76
CC1=C(c2ccc(F)cc2)S(=O)(=O)NC1=NCCC(C)C	.	-0.58
COC(=O)c1ccc([C@@H]2Nc3ccc(OC)cc3[C@@H]3C=CC[C@@H]32)cc1	-1.1	.
CCCn1cc(S(=O)(=O)c2ccc(CC)cc2)c(=O)c2cc(F)c(F)cc21	-1	0.61
Cc1nc2cccnc2n1-c1ccc(CCC(=O)O)cc1	1.8	6.5
COc1ccc(CN2CCN(Cc3ccc4c(c3)OCO4)CC2)cc1	-0.59	0.3
CN1C(=O)C(Cc2nc3ccccc3c(=O)n2C)c2cc(Br)ccc21 (stereo not drawn)	-2.5	2.5
CCOC(=O)c1c(S(=O)(=O)NCC(=O)N2CCC(C)CC2)c(C)n(C)c1C	.	0.23
Cn1c(=O)c2[nH]c(-c3ccco3)nc2n(C)c1=O	-2.2	.
Cc1ccc(C(c2c(O)cc(C)n(Cc3ccco3)c2=O)N2CCC(C)CC2)cc1 (stereo not drawn)	.	0.45
COc1ccc(-c2nc3c[n+](CC(N)=O)ccn3c2Nc2ccc3c(c2)OCO3)cc1	-2.1	1.4
CCC(C)(C)NC(=O)c1cc(S(=O)(=O)N2CCCC2)cn1C	.	1.2
COCCCNC(=O)CCCN1C(=O)CCn2nc(C)cc21	.	-0.11
Cn1c(=O)n(CC(=O)N2CCCC2)c(=O)c2cc(S(=O)(=O)N3CCc4ccccc43)ccc21	.	-0.18
CCOc1ccccc1C1C(C#N)=C(N)Oc2ccc3ccccc3c21 (stereo not drawn)	-0.07	-0.38
CCCC1(C)C(C#N)(C#N)C1(C#N)C#N	-2.5	.
COCCNC(=O)C(=O)NC1CC(C)(C)NC(C)(C)C1	0.67	-0.17
Cc1cc(F)ccc1NS(=O)(=O)c1ccc(-n2cccn2)cc1	.	0.78
O=C1NCCc2c1[nH]c1ccc(C#Cc3ccccc3)cc21	0.26	.
CCCCc1nn2cc(-c3cccc(OC)c3)nc2s1	0.76	0.89
COc1ccc(N2C(=O)CC(N3CCC(C(=O)O)CC3)C2=O)cc1 (stereo not drawn)	-1.1	0.64

Compounds shown so far that have a nitro group on carbon:
SMILES	CDC25B-CDK2 inh	HIV TAR-Tat
N#CC1=C(N)Oc2n[nH]c(-c3ccccc3)c2C1c1ccc([N+](=O)[O-])s1 (stereo not drawn)	2.2	1.4
CC(C)(C)c1ccc(NC(=O)c2ccc(Cl)cc2)c([N+](=O)[O-])c1	-0.93	.

More entries:
SMILES	CDC25B-CDK2 inh	HIV TAR-Tat
CC1(C)C(=O)N(CC(=O)N2CCc3ccccc32)c2ccc(S(=O)(=O)N3CCCCC3)cc21	.	0.03
Cc1nn(CC(=O)NCCCN2CCCCC2)c(=O)c2cc3sccc3n12	-0.26	-0.27
COc1ccc(C2NC(C(=O)O)CS2)cc1COc1ccccc1Cl (stereo not drawn)	-0.33	.
COc1ccc(OCCN[C@H]2CS(=O)(=O)C[C@@H]2S(=O)(=O)c2cccs2)cc1	-2.5	-0.91
CN(CCCNC(=O)CSc1ncnc2c1sc1cccc(F)c12)c1ccccc1	.	-1.2
Cc1ncc(CO)c2c1Oc1nc(-c3ccccc3)nc(SCC(=O)N3CCOCC3)c1C2	.	1.1
CCc1ccc(C2=Nn3c(Cc4ccccc4)nnc3SC2)cc1	.	0.86
COc1ccc(CNc2ncnc3scc(-c4ccc(Cl)cc4)c23)cc1	0.5	2.2
COc1ccccc1NS(=O)(=O)c1cn(C)cn1	.	0.55
COc1ccc(-c2nn3c(C(C)(C)C)nnc3s2)cc1OC	-1.3	2.4
O=S(=O)(c1ccc2[nH]c3c(c2c1)CCCCC3)N1CCc2ccccc2C1	.	2.2
COCCNS(=O)(=O)c1ccc2oc(=O)c3ncn(C)c3c2c1	.	0.05
O=C(N1CCN(CCO)CC1)N1c2ccccc2C=Cc2ccccc21	-1.1	1.4
O=C(NCCNc1ncc(C(F)(F)F)cc1Cl)C1=Cc2cc(Cl)ccc2OC1	-1.2	.
Cc1ccc2nc(Nc3cccc(F)c3)c3nnnn3c2c1	-3	-1.1
CSCCn1c(-c2ccccc2)cc(C(=O)N2CCCC2)c1C	-2.2	.
CCn1ncc(C2=NOC(C(=O)NCc3ccco3)C2)c1C (stereo not drawn)	-1.4	-0.08
COc1ccc(Cl)cc1NC(=O)C1=Cc2sc3c(c2CS1)CCCC3	.	-1.8
COC(=O)c1cc2sccc2n1Cc1c(F)cccc1Cl	-0.57	-0.5
CCOCCc1nn2c(=O)cc(COC(=O)c3ccccc3F)nc2s1	.	-0.82

Given as a markdown table: part of the list above
| structure | CDC25B-CDK2 inh | HIV TAR-Tat |
| --- | --- | --- |
| CCC(C)NC(=O)CCC(=O)N1Cc2cccn2-c2ccccc21 (stereo not drawn) | . | 1.5 |
| Cc1cc2oc(C(=O)Nc3sc4c(c3C(=O)NCC3CCCO3)CCC4)cc(=O)c2cc1C (stereo not drawn) | -2.1 | -8.5 |
| Cc1cc(N2C(=O)C3C4C=CC(C4)C3C2=O)no1 (stereo not drawn) | -1.1 | . |
| CC1=C(c2ccccc2)S(=O)(=O)NC1=NCc1ccc(F)cc1 | -6.5 | -1.9 |
| CC(C)(C)CC(=O)Nc1nnc2n1CCCS2 | . | 1.1 |
| O=C1C(=O)N(CCCn2ccnc2)C(c2cccc(Br)c2)/C1=C(\O)c1ccc(F)cc1 (stereo not drawn) | -2 | 0.47 |

The results go on.
SMILES	CDC25B-CDK2 inh	HIV TAR-Tat
Cc1ccn(Cc2nnc(SCc3cc(=O)n4cc(C)sc4n3)o2)n1	.	-0.12
Cc1ncc(-c2ccc(C)c(S(=O)(=O)NCCC3=CCCCC3)c2)o1	.	0.92
O=C1C(Cc2ccc(O)cc2)NC(=S)N1Cc1ccccc1 (stereo not drawn)	0.54	.
COc1ccc(-c2nc3ccccc3c3nnc(SCC(N)=O)n23)cc1	.	0.98
Cc1ccc2c(Cl)c(C(=O)N(Cc3ccco3)C3CCS(=O)(=O)C3)sc2c1 (stereo not drawn)	-1.2	1
c1ccc2c(c1)nc1n2CCN(C2CCCCC2)C1	-1.3	0.1
CC(=O)c1ccccc1N=Cc1cc(Cl)cc(Cl)c1O	-0.6	.
CCN(CCN(C)C)C(=O)Cn1ncc2c(=O)oc3ccc(C)cc3c21	0.08	1.2
Cc1ncc(CO)c2c1Oc1[nH]c(-c3ccccc3)nc(=S)c1C2	-0.19	-2.1
CCOc1ccc2nc(NC(=O)Nc3cc(Cl)c(OC)cc3OC)sc2c1	-2.3	1.3
COc1ccc(-c2noc(CSc3nnc(-c4ccncc4)n3-c3ccccc3)n2)c(OC)c1	0.07	1.2
COc1ccc(C=C(C#N)C#N)c(Cn2cc(Cl)cn2)c1	-3.4	.
COc1cc2c(cc1OC)/C(=C/c1cc(OC)c(OC)c(OC)c1)C(=O)N2	-1.9	.
CN(C)CCNc1nc2c(c(=O)[nH]c(=O)n2C)n1CCCc1ccccc1	0.23	.
CCOc1ccc(-c2csc(-c3nc(-c4ccc5c(c4)OCO5)cs3)n2)cc1	.	-0.07
Clc1ccc2c(N3CCC(n4cccc4)CC3)ccnc2c1	-1.2	.
CCCN(Cc1cccs1)C(=O)Nc1ccc2c(c1)OCCO2	-0.35	-0.59
N#Cc1c(NC(=O)c2nc(-n3cnnc3)ccc2Br)sc2c1CCCC2	.	3.2
CCCCN(CC)C(=O)Cn1ncc2c3ccccc3n(CCC)c2c1=O	.	-0.93
CC1(C)CC(=O)c2sc(NC(=O)c3cc(=O)c4ccccc4o3)nc2C1	-0.34	.
COc1ccc(Cl)cc1NC(=O)N1CCSc2ccccc21	.	-0.29
CN(Cc1nc2ccccc2n1C)S(=O)(=O)c1ccc(F)cc1	-0.04	0.49
CCc1nn(CC(=O)N2CCCCC2C)c(=O)c2cc3occc3n12 (stereo not drawn)	0.22	-0.12
CCOc1ccsc1C(=O)NN	-1.8	.
O=C(NCCCN1CCOCC1)C1CCCN(c2nnc(-n3cccc3)s2)C1 (stereo not drawn)	-0.25	-0.61
O=C(CC1(O)C(=O)N(Cc2ccccc2)c2ccccc21)c1ccc(Br)s1 (stereo not drawn)	-1.5	.
O=c1c2ccccc2ncn1Cc1noc(-c2ccccc2)n1	.	0.7
O=C1CSC(c2ccccc2O)N1Cc1ccccc1 (stereo not drawn)	-1.5	.
Cc1cc(C)c(C(=O)Cn2c(NCCO)nc3ccccc32)cc1C	-0.51	2.6
O=C(O)c1cc(-c2cccc(F)c2)nc2n[nH]c(-c3ccc(Cl)cc3)c12	.	2.1
c1ccc2c(c1)c(N1CCCCC1)nn1nnnc21	-3.1	1.1
Cc1cc2c3c([nH]c2cc1S(=O)(=O)NCCSCc1ccco1)CC(C)(C)CC3=O	.	-1.5
CC(C)NC(=O)C1CCCN(S(=O)(=O)N(C)C2CCCCC2)C1 (stereo not drawn)	.	2.9
O=c1c2c(-c3ccc(Cl)cc3)noc2ncn1Cc1ccccc1Cl	.	1.3
COC(=O)c1ccccc1NC1c2ccccc2C(=O)N1c1cccnc1 (stereo not drawn)	-1.1	0.64
Cn1c(=O)c2c(nc(NCc3ccc4c(c3)OCO4)n2Cc2ccccc2F)n(C)c1=O	0.26	-2.2
Cc1nnc2sc(SCC(=O)c3ccccc3)nn2c1=O	.	0.41
CCOC(=O)c1noc2nc(C)n(Cc3ccc(Br)cc3F)c(=O)c12	.	-0.68
COc1ccccc1N(C(C)=O)C1SC(=O)N(c2ccccc2)C1=O (stereo not drawn)	0.12	.
